Compound activity as filed in PubChem.
miR-21 reporter: raises the signal of a miR-21 reporter; AID 2288; 340,000 tested, under 10 active; HeLa miR-21 FLuc reporter, luciferase, 48 h; Potency, µM (doses to about 38.3 µM), inactives show at the top dose reporter change, positive = more light; active = well fitted rising curve with a large enough effect; inconclusive = small, poorly fitted or top-dose-only effect; inactive = no such curve, though single readings can be large or run the other way;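 further: % of control where 0% means no effect; miR-21 action dims this reporter so a rising signal means less miR-21 action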
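HeLa cells endogenously expressing miR-21, stably carrying CMV-driven firefly luciferase with a downstream miR-21 binding site, 2000 cells/well. Titrations up to approximately 40 uM, 48 hours; luciferase luminescence read.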
GLA inh pH 4.5: alpha-galactosidase A (human) inhibition, pH 4.5; P06280; purified enzyme, 4-MU-alpha-Gal fluorescence, pH 4.5; activity change, negative = inhibition, % at 105 µM; 230,000 tested, under 10 active; AID 1467; inconclusive = small, poorly fitted or top-dose-only inhibition, or a rising curve; inactive = flat fitted curve, though single readings scatter; no compound was filed as active;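 further: 0% = full activity with enzyme and -100% = basal without enzyme; dose as in the result columns while the protocol names 77 µM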
Target sequence (P06280 whole entry, looked up): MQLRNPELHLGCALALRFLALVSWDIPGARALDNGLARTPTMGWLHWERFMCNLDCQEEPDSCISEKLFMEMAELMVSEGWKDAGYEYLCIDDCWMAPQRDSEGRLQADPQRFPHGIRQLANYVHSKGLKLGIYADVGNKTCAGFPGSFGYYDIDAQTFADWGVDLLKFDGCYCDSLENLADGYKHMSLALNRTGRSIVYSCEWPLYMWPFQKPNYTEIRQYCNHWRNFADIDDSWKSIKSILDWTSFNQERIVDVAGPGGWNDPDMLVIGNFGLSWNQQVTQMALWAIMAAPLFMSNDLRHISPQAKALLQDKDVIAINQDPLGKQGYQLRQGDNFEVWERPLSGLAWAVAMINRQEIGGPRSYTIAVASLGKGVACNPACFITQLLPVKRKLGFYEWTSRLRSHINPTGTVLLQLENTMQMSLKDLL
Rango-impB inh: Rango-importin beta binding inhibition | AID 540263 | Potency, µM (doses to about 92.2 µM), for inactives: at the top dose inhibition of complex formation | 0.031% of 340,000 active | Rango CFP/YFP FRET sensor + importin beta, 45 min; active = rising FRET ratio curve, often small or poorly fitted; inconclusive = mostly compound fluorescence or quenching in the first reads; inactive = flat curves in all reads;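 further: potency means the concentration at half of the fitted maximal effect; 0% = DMSO wells and 100% = buffer wells lacking importin beta; nearly all actives have a fitted effect of over 15% in size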
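FRET biosensor (snurportin 1 IBB flanked by EYFP and cerulean), 50 nM, with compound 5 min, then 0.125 microM importin beta in PBS, 1 mM DTT, 0.02% Tween-20, 0.1% BSA. CFP/YFP ratio read after 45 min at room temperature; pre-read flags interference.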
Rango release inh: prevents RanGTP from dissociating the Rango-importin beta complex. O95149+P62826. Biochemical FRET Rango-importin beta, RanGTP-induced dissociation. Potency, µM (doses to about 46.1 µM), for the others: top-dose activity change, negative = inhibition. 0.071% of 340,000 active. AID 540253; active means falling FRET ratio curve, often poorly fitted, with flat reads before Ran was added; inconclusive means other falling curves, or compound fluorescence or quenching; inactive means flat or rising ratio curve;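 further: potency means the concentration at half of the fitted maximal effect; % of control where 0% means no effect; nearly all actives have a fitted effect of over 45% in size; -100% = wells without RanGTP and RCC1; the record marks most hits as doubtful in a second field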
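FRET read at 45 min, room temperature: inhibitors block the CFP/YFP signal rise when RanGTP (0.6 uM Ran, 2 mM GTP, 0.2 uM RCC1) frees Rango (0.1 uM) from importin beta (0.25 uM). Pre-read after 5 min compound exposure flags interference.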
Starred values were filed as active, the others as inactive; ? = inconclusive; · = not tested or not shown; & = joins results of further samples; [ ] = another dose, or the depositor's remark.

miR-21 reporter	GLA inh pH 4.5	Rango-impB inh	Rango release inh	Compound
-27%	3	7.4%	12%	COC(=O)Nc1ccccc1C(=O)N1CCN(c2ccc(C)cc2)CC1
-2%	-15	-0.2%	-14%	COc1ccc(C2=NO[C@@H]3[C@@H]4C[C@@H]([C@H]5C(=O)N(C)C(=O)[C@@H]45)[C@H]23)c(OC)c1
-1%	10	-0.9%	18%	COc1cccc(/C=C/C(=O)NCc2cn3cc(Cl)ccc3n2)c1OC
-6%	-5	3.3%	-10%	CCOC(=O)/C(=N/Nc1ccccc1)Sc1nnnn1-c1ccc(C)cc1
6%	·	0.6%	0%	O=C(Nc1cccc(-c2cscn2)c1)C1CCN(Cc2ccccn2)CC1
-15%	7	6.0%	-20%	CCOc1ccc(N(C(=O)c2cnsn2)C(C(=O)NC2CCCCC2)c2ccncc2)cc1 (centres undefined)
-1%	-1	4.1%	1%	Cc1cc(-c2n[nH]c(=S)n2/N=C/c2cc([N+](=O)[O-])ccc2Cl)n[nH]1
-3%	-1	0.8%	0%	CCOC(=O)C(C)c1c(C)[nH]c(=S)[nH]c1=O (centres undefined)
·	·	3.2%	7%	O=C(COC(=O)CCN1C(=O)C2CC=CCC2C1=O)Nc1ccc(Cl)cc1F (centres undefined)
-15%	1	-4.4%	0%	O=C(O)c1ccccc1-c1ccccc1C(=O)NNc1ccccc1
·	3	-1.2%	8%	CS(=O)(=O)OCCCCOS(C)(=O)=O
-1%	·	-0.7%	13%	COc1ccc(NC(=O)NCCc2c[nH]c3ccccc23)c(OC)c1
-30%	0	-0.2%	-11%	O=[N+]([O-])c1ccc(NCc2ccccn2)nc1
-49%	·	0.1%	11%	O=C(Cn1cnc2ccccc2c1=O)c1ccc(OC(F)F)cc1
-6%	-1	1.8%	-14%	Cc1ccc(S(=O)(=O)Nc2cccc3c2CCCC3)cc1
·	·	-2.5%	-7%	CN1CCN(c2ccc(NC(=O)c3ccc(-c4ccccc4F)o3)cc2)CC1
0%	1	-2.6%	-14%	OCC1CCCN(c2nc(CN3CCCCC3)nc3scc(-c4ccccc4)c23)C1 (centres undefined)
-7%[7.66 µM]	1	4.1%	1%	COC(=O)CSc1nnc(-c2ccccn2)n1Cc1ccco1
2%	·	-1.0%	-2%	O=C(Nc1nnc(SCC(=O)N2CCOCC2)s1)C1CC(=O)N(c2ccc(F)cc2)C1 (centres undefined)
-4%	0	-1.0%	2%	Cc1ccc(-n2cnnn2)c(S(=O)(=O)N2CCOCC2)c1
0%	·	2.0%	23%	COc1ccccc1Nc1nc(N(C)c2ccccc2)nc(N)c1[N+](=O)[O-]
0%	·	2.3%	-1%	CC12CC3CC(C)(C1)CC(C(=O)N1CCN(C(=O)C4CCCO4)CC1)(C3)C2 (centres undefined)
·	·	4.3%	1%	Cc1cccnc1NC(=O)CNC(=O)c1ccccc1
14%	-5	0.3%	-7%	O=C(CN(c1ccc2c(c1)OCCO2)S(=O)(=O)c1ccccc1)NCc1ccco1
-14%	9	-0.4%	18%	Cc1cc(NC(=O)C2CCC2)n(-c2ccccn2)n1
-5%	8	-0.5%	-3%	O=C(COC(=O)/C=C/c1ccccc1)Nc1cc(C(F)(F)F)ccc1N1CCOCC1
11%	·	-2.1%	-11%	O=[N+]([O-])c1ccccc1S(=O)(=O)c1ccccc1[N+](=O)[O-]
-2%	8	-0.4%	-5%	Cc1ccc(-n2nc3c(c2NC(=O)c2ccc(Br)o2)CSC3)c(C)c1
·	·	-0.2%	-3%	CCNC(=O)CC1SC(=Nc2ccc(C)c([N+](=O)[O-])c2)N(C)C1=O (centres undefined)
4%	·	1.4%	-13%	Cc1nc2ccc([N+](=O)[O-])cc2c(=O)n1Cc1ccc(Br)cc1
-1%	8	?	-10%	CCOC(=O)c1c(NC(=O)c2ccncc2)sc(C)c1C
-8%	-9	-5.5%	13%	O=C(c1ccccc1)N1CCN(c2ccc([N+](=O)[O-])c(NCC3CCCO3)c2)CC1 (centres undefined)
-18%	-7	-3.2%	4%	CCN1CCN(c2nc3ccccc3n3cnnc23)CC1
-40%	-3	8.9%	-5%	COC(=O)c1ccc(COc2ccc(/C=N/Nc3cccc(C(=O)O)c3)cc2)cc1
-9%	·	-1.3%	10%	COc1ccccc1Cn1nc(C(=O)O)c2ccccc2c1=O
-3%	-27	-1.0%	6%	COc1cc(Cl)c(C)cc1NC(=O)CNC(=O)Cn1cnc2ccccc2c1=O
-1%	·	-0.8%	0%	CCC(C)NC(=O)CCn1ccc2cc(S(=O)(=O)N3CCCC3)ccc21 (centres undefined)
-2%	·	-2.0%	8%	O=C1c2ccccc2CN1C(CO)c1ccccc1 (centres undefined)
-9%	12	5.8%	1%	COC(=O)C1(C)Nc2ccccc2C(=O)N1c1ccccc1OC (centres undefined)
-38%	7	-1.4%	1%	O=C(Nc1ccc(-c2nc3ccccc3s2)cc1)C1=COCCO1
·	·	-0.7%	-2%	COc1ccccc1NC(=O)c1ccccc1C(=O)N(C)Cc1ccccc1
-8%	-3	3.6%	-2%	Cc1ccc2nsnc2c1S(=O)(=O)N1CCN(Cc2ccc3c(c2)OCO3)CC1
·	·	-0.8%	-2%	CCOC(=O)c1ccc(NC(=O)c2nc[nH]c2C(=O)NCCCCNC(=O)c2[nH]cnc2C(=O)Nc2ccc(C(=O)OCC)cc2)cc1
·	·	-0.5%	6%	CN(C(=O)COC(=O)c1ccccc1C(=O)c1ccccc1)c1ccccc1
14%	7	-3.9%	25%	Cc1cccc(C)c1NC(=S)NN(Cc1ccccc1)c1ccccc1
12%	·	0.1%	11%	Cc1ccc(C)c(NS(=O)(=O)c2ccc3c(c2)NC(=O)CCS3)c1
·	·	1.3%	-3%	Cc1ccc(N(Cc2ccccc2)C(=O)c2cccc(S(=O)(=O)N3CCOCC3)c2)cc1
1%	-16	2.7%	-11%	CCN(C(=O)COc1cc(=O)n(CC)c2ccccc12)c1cc(Cl)ccc1OC
·	·	2.3%	-10%	CC12CCC(=O)N1C(C(=O)Nc1ccc(F)c(F)c1F)CS2 (centres undefined)
0%	0	-0.5%	15%	COc1ccc(COC(=O)c2nc3nc(C)cc(C)n3n2)cc1F
-14%	3	-1.1%	-7%	O=C(COc1ccc(Br)cc1)N1CCc2ccccc2C1
-18%	0	?	?	CCCn1c2ccccc2c2nc3ccccc3nc21
-25%	1	-0.8%	-2%	CC(=O)CSc1nnc(Cc2ccc3c(c2)OCO3)o1
-6%	-10	0.9%	6%	N/C(=N\OC(=O)C(c1ccccc1)c1ccccc1)c1ccncc1
·	·	-0.4%	12%	CCN(CC(=O)Nc1c(F)cccc1F)C(=O)c1cc(C)oc1C
-2%	·	1.6%	0%	CC(=O)c1ccccc1OCCn1nc(C(=O)O)c2ccccc2c1=O
·	·	-1.2%	0%	COc1ccc(CN2C(=O)[C@H]3Cc4c([nH]c5ccccc45)C(C)(C)N3C2=O)cc1
2%	-5	-1.2%	4%	CCCCC(c1nnnn1CC1CCCO1)N1CCN(c2cccc(C)c2C)CC1 (centres undefined)
19%	·	?	-4%	COc1ccc(C(=O)c2sc(Nc3ccccc3)nc2N)cc1OC
-3%	0	0.2%	-1%	COc1ccc(NC(=O)[C@H](CCS(C)(=O)=O)N2Cc3ccccc3C2=O)c(OC)c1

The listing continues:
miR-21 reporter	GLA inh pH 4.5	Rango-impB inh	Rango release inh	Compound
-4%	·	-0.7%	2%	CCOC(=O)c1sc2nc(C)nc(NCc3ccccc3OC)c2c1C
1%	4	-0.6%	7%	O=C(COC(=O)[C@@H]1CC(O)CN1S(=O)(=O)c1ccccc1[N+](=O)[O-])c1ccccc1 (some centres undefined)
-17%	1	-4.8%	-7%	CC1Cc2cc(/C(O)=C3\C(=O)C(=O)N(CCN4CCOCC4)C3c3ccccc3F)ccc2O1 (centres undefined)
·	·	-3.1%	31%	COc1cc2ccccc2cc1C(=O)OCC(=O)N(CC(C)C)c1c(N)n(Cc2ccccc2)c(=O)[nH]c1=O
-11%	-23	-2.7%	0%	Cc1cc(C)c2cc(CN(Cc3ccc4c(c3)OCO4)Cc3nnnn3Cc3ccco3)c(=O)[nH]c2c1
·	·	0.4%	-19%	Cc1cc(Cl)c2oc(C(=O)N3CCN(c4ccncc4)CC3)c(C)c2c1
-26%	2	?	-13%	[O-]/[N+](=C/c1ccc(F)cc1)c1ccc(Cl)cc1
0%	-2	5.7%	0%	CC(C)(C)NC(=O)C(c1ccc(O)cc1)N(Cc1ccco1)C(=O)Cn1nnc(-c2cccs2)n1 (centres undefined)
·	·	-1.0%	-12%	CNC(=O)c1c(NC(=O)C2=COCCO2)sc2c1CCN(C(=O)OC)C2
1%	-7	-0.4%	10%	COC(=O)c1c(C(=O)OC)n(CCCN)c2ccc(C)cc12
1%	3	1.9%	5%	CCc1cc2c(N[C@@H](Cc3c[nH]c4ccccc34)C(=O)O)ncnc2s1
-17%	-9	-2.2%	-1%	CCn1c(=O)cc(SCC(=O)Nc2ccc3c(c2)OCCO3)c2ccccc21
-1%	·	-2.7%	12%	CCN1CCN(Cc2ccc(C(=O)Nc3ccc(C)c(NCc4cnc(NC(=O)OC)cn4)c3)cc2C(F)(F)F)CC1
0%	6	0.7%	-10%	CCN(CC)C(=O)CSc1nnc(COc2ccccc2)n1N
-15%	-1	?	-12%	CCOc1ccc(C(=O)N/N=C/c2ccc(-c3ccc(S(=O)(=O)Nc4ncccn4)cc3)o2)cc1
1%	·	2.0%	2%	CC(=O)N1c2ccc(S(=O)(=O)N3CCC(C(=O)NCc4ccc(N(C)C)cc4)CC3)cc2CC1C (centres undefined)
·	·	-1.1%	1%	CN1OC[C@@H]2CN[C@H](c3cccc(-c4ccc(C#N)cc4)c3)C[C@@H]21
11%	8	3.3%	0%	COc1ccc(NC(=O)C2CC(=O)n3c(nc4ccccc43)N2)cc1 (centres undefined)
-1%	-9	4.5%	-5%	O=c1[nH]c(NNC(=S)NCc2ccccc2)nc2c1C1(CCCCC1)Cc1ccccc1-2
-6%	·	?	?	Cc1cc(C(=O)N/N=C/c2ccc(-c3ccc([N+](=O)[O-])cc3C)o2)n[nH]1
5%	-2	1.1%	-17%	COc1ccc(N=CC2=C(O)CC(C)(C)CC2=O)cc1OC
-22%	5	-4.9%	-10%	c1ccc(-c2noc(CC3CCCCC3)n2)cc1
-3%	4	-0.1%	-3%	O=C(COC(=O)C1(c2ccc(F)cc2)CCCC1)NC1CC1
-2%	·	-4.4%	-18%	Cc1ccc(CC2C(=O)N(c3ccccc3)C(=O)C2C)cc1 (centres undefined)
0%	-5&-11	1.5%	17%	COC(=O)[C@@H]1C[C@H]2CC[C@H](O)C[C@H]2N1Cc1ccc(C(C)(C)C)cc1
-17%	-2	-7.4%	-19%	CCOC(=O)C1C(=O)C=C(c2ccc(OC)cc2)CC1c1ccco1 (centres undefined)
5%	-1	4.2%	0%	C=CCNC(=S)NNC(=O)C(CC(C)C)CC(C)O (centres undefined)
1%	·	1.5%	9%	COc1ccc(CC(=O)Oc2cc(C)ccc2C)cc1

Some of the compounds tested; count on the stated rates, not on these rows.
